eIF4H inh: human eIF4H binding inhibitors, primary screen, translation initiation inhibitor project, biochemical, uHTS, fluorescence polarization. inhibition, % at 35 µM. Eukaryotic translation initiation factor 4H (Homo sapiens), Q15056. 290,000 compounds, 0.94% hits. eIF4H fluorescence polarization binding assay;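 active = 50% or more with normal probe brightness, or confirmed in later tests; inconclusive = above 50% with abnormal brightness, or retests that disagree; inactive = below 50% or failed in later tests; about a fifth of its hits are not listed in these tables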;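 also: calls also rest on retests at 20 µM and on dose response follow-up; 0% = protein and probe with vehicle and 100% = probe without protein; strong numbers were not always called active; many hits fall short of the cut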
MT1-MMP act inh: blockers of MT1-MMP proenzyme processing, primary screen, HT1080 RFP-PRO-GFP cells, GFP/RFP fluorescence; GFP/RFP ratio fluorescence, overnight; percent of plate control window, DMSO zero; 360,000 compounds, 0.061% hits; AID 651647, 2012; Matrix metalloproteinase-14 (Homo sapiens), P50281; GFP/RFP ratio change, % at 20 µM;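 active = GFP/RFP ratio change of at least 30% with cell ATP level not reduced by more than half and red fluorescence within 50% of control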; also: strong numbers were not always called active
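Assay system: HT1080 cells carrying an RFP-PRO-GFP reporter | Dosing: Single dose of 20 µM compound, 1% DMSO final | Incubation: Cells overnight before dosing, compound overnight, 37 °C, 5% CO2 | Evaluation: GFP/RFP fluorescence ratio | Control set: DMSO and RFP-L50D-GFP cell wells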
Rce1 inh: yeast Rce1p protease inhibitors, primary screen, biochemical, fluorescence, cell-free homogeneous; CAAX prenyl protease 2 (Saccharomyces cerevisiae (strain ATCC 204508 / S288c)), Q03530; yeast membranes, quenched prenylated peptide cleavage fluorescence; calls only; 290,000 compounds, 0.27% hits;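 active = fall in fluorescence gain of 50% or more versus controls, with final raw signal at or below 3038400; inconclusive = same 50% fall but final raw signal above 3038400; inactive = fall in fluorescence gain under 50%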;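 also: plate controls were neutral control wells for no effect and wells lacking membranes for full effect; tested at 10 µM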
Target sequence (Q03530 whole entry, looked up): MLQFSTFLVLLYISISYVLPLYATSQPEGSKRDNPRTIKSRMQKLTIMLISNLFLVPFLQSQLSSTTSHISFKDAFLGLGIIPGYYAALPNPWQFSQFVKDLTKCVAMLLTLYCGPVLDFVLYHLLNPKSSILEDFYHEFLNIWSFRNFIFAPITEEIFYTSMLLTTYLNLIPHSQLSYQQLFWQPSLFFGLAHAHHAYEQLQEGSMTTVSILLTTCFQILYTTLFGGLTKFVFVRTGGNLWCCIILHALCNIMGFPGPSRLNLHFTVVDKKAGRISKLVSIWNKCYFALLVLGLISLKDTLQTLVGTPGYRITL
CSC inhib: cancer stem cell viability inhibitors, primary screen, luminescence; cancer stem cell-like cells viability; inhibition, % at 7.5 µM; 300,000 compounds, 1.1% hits; AID 2717, 2010;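 active = mean at 75% or more and at least half the replicates too; inconclusive = mean and replicates disagree; tested in HMLE shEcad cells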;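 also: 0% = median of negative and 100% = median of positive control wells; the first replicate is given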
Yeast UUG start: modulators of yeast start codon fidelity, primary screen, whole organism, S. cerevisiae, single point, plate reader | S. cerevisiae UUG-firefly luciferase reporter, luminescence/redox ratio | activity score, % at 18.7 µM | 350,000 compounds, 0.13% hits;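 active = replicate mean at a twofold rise or more, about +100% in these data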;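 also: firefly luciferase made from a UUG start codon reports start codon fidelity; reporter light over untreated wells divided by growth signal over untreated wells; some hits fall short of that in this replicate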
PABP polyA inh: PABP poly(A) RNA binding inhibitors, primary screen, biochemical, fluorescence polarization, uHTS | 290,000 compounds, 1% hits | inhibition, % at 35 µM | Polyadenylate-binding protein 1 (Homo sapiens), P11940;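 active = 50% or more with normal probe brightness, or confirmed in later tests; inconclusive = above 50% with abnormal brightness, or retests that disagree; inactive = below 50% or failed in later tests; about a fifth of its hits are not listed in these tables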;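 also: calls also rest on retests at 20 µM and on dose response follow-up; controls were probe without protein and protein plus probe with vehicle; some compounds called inactive have numbers as strong as hits; many hits fall short of the cut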
Target sequence (P11940 whole entry, looked up): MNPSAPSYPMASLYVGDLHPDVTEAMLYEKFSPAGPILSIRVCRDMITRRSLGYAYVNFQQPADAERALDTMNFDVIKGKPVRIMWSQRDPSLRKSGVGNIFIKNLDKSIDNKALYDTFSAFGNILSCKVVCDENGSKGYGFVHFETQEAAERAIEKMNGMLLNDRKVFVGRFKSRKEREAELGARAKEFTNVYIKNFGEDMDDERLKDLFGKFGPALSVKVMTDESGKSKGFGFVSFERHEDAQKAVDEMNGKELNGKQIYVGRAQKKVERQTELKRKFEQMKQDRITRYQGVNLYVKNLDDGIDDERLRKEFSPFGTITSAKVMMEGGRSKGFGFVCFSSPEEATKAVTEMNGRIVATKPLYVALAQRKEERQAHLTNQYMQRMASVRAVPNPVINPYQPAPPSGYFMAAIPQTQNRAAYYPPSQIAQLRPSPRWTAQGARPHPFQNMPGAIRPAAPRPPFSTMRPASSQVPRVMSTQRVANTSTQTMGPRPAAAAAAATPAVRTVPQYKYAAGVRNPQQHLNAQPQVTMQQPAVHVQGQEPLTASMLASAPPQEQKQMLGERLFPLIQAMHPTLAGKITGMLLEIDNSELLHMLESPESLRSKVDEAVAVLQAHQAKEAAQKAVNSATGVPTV
Env fusion inh: inhibitors of HIV-1 Env-driven cell-cell fusion, primary screen, HeLa-JRFL effector, CEM21 target cells, luciferase. inhibition, % at 12.3 µM. 360,000 compounds, 1.1% hits;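 active = mean replicate inhibition score of at least 50 and every replicate individually at or above 50; inconclusive = only one of the two criteria met; inactive = mean below 50 and not all replicates reaching 50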;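 also: 0% = plate neutral controls and 100% = maraviroc near 300 nM; one replicate is shown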
MT1-MMP act inh RFP: further read-out of MT1-MMP act inh, marked with its call; RFP signal change, %; measured here: RFP expression control read;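 0 = vehicle wells; hits needed this value within 50% of zero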
* hit, by the source's call; i = inactive; ? = inconclusive; / = no result given.

SMILES	eIF4H inh	MT1-MMP act inh	MT1-MMP act inh RFP	Rce1 inh	CSC inhib	Yeast UUG start	PABP polyA inh	Env fusion inh
Cc1cc(C)c(S(=O)(=O)/N=C2\C=C(Nc3ccc(C(=O)O)cc3)C(=O)c3ccccc32)c(C)c1	60*	16	-16	i	/	-23	54*	73*
Cc1ccccc1CN(CC1CCC(C(=O)O)CC1)C(=S)Nc1ccccc1F (centres undefined)	6	-2	5	i	/	-20	?	7
Cn1c(SCc2n[nH]c(=S)o2)nnc1-c1ccccc1	2	1	6	i	-12	2	7	12
CCOC(=O)c1cccnc1SCC(=O)NCc1ccccc1	7	0	2	i	-9	-13	12	-7
COC(=O)CC1C(=O)NCCN1C(=O)Nc1cccc(Cl)c1 (centres undefined)	-2	-2	-2	/	12	-42	-2	9
COCc1[nH]nc2c1C(c1c(F)cccc1Cl)C(C#N)=C(N)O2 (centres undefined)	-8	-4	1	i	-7	-9	2	/
COC(=O)CCN1CCC2CC1c1cc(-c3cccc(C)c3)ccc12 (centres undefined)	/	3	-2	/	/	-30	/	6
CS(=O)(=O)c1ccc(Cl)c(NC(=O)COC(=O)c2ccc(-n3cnnn3)cc2)c1	/	-1	2	/	-12	-12	/	-11
CN(CC(=O)NCc1ccc(F)cc1)S(=O)(=O)c1ccc(Br)s1	1	0	4	/	5	-16	2	7
CCOC(=O)CCSc1nc(C)c2cc(C)ccc2n1	-6	4	5	i	4	-24	2	/
COc1ccc(OC)c(NC(=O)Nc2nc(C(N)C(C)C)cs2)c1 (centres undefined)	/	-1	1	/	/	-15	/	-21
O=C1CCC(=O)N1c1nc2n(n1)C(c1ccccc1)C=C(c1ccc(Br)cc1)N2 (centres undefined)	7	-125	-8	i	5	-20	9	-6
NC(=O)C1CCN(C(=O)c2ccc3ccccc3c2)CC1	-4	4	5	i	0	-2	3	0
N/C(=N\OC(=O)/C=C/c1ccccc1)c1ccc(Br)cc1	-1	5	5	i	-2	1	-16	-11
Cc1ccc(S(=O)(=O)N2CCCCC2)cc1C(=O)N(C)CC(=O)Nc1ccc(Cl)c(C(F)(F)F)c1	0	-4	-22	i	42	4	-2	18
CCOC(=O)c1ccccc1NS(=O)(=O)c1ccccc1	2	7	1	i	-4	-10	2	15
O=C(NC1CCSc2ccccc21)c1cccc(OC(F)F)c1 (centres undefined)	-7	0	-2	i	-14	-17	-1	7
NC(=O)N/N=C/c1ccc(-c2ccc([N+](=O)[O-])cc2)o1	3	1	4	i	-5	/	6	-1
O=C(O)c1ccc(Oc2cc(Oc3ccc(C(=O)O)cc3)cc([N+](=O)[O-])c2)cc1	17	1	1	i	-8	-15	14	7
N#CCCN(/N=C/c1cccnc1)C1=NS(=O)(=O)c2ccccc21	2	-1	1	i	-21	/	-9	3
COC(=O)c1cn(-c2ccccc2)c(C)c1C(=O)OC	0	-4	-2	i	27	1	-10	-73
CCC(CC)C(=O)NCc1ccc2c(c1)cc(C)n2C	2	25	29	i	-1	-8	8	-38
O=C(Nc1ccccc1N1CCCCC1)c1ccc(Cl)cc1	3	-4	-6	i	6	6	-10	5
CC(C)N(CC(N)=O)C(=O)Cc1coc2cc3c(cc12)CCC3	-3	-1	0	i	-27	/	-6	13
Cc1cccc(C(=O)NC2CCN(CC(=O)NCc3cccs3)CC2)c1	-1	3	0	i	/	/	-15	-3
CC(C)c1ccccc1NC(=S)NC1CCCCC1	-1	-3	-2	i	-25	/	-6	19
O=C(c1cc(-c2cccs2)on1)N1CCN(c2ccccc2)CC1	8	-9	-1	i	/	-20	7	/
Cc1cc(C(=O)Nc2sc3c(c2C#N)CCC(C(C)(C)C)C3)no1 (centres undefined)	1	-3	-5	i	-3	-22	4	-16
CCOC(=O)c1c(C)oc2cc(Cl)c(O)c(CN(C)C)c12	6	-4	4	i	-3	/	-9	4
Cc1ccc(NC(=O)COC(=O)CCc2c[nH]c(=O)[nH]2)cc1	7	-3	7	i	-9	-15	10	-33
CCNC(=S)N1CCN(c2ncccn2)CC1	-9	2	3	i	-8	-25	4	-65
Cc1ccc(NC2=NC(c3ccc(C)cc3)n3c(nc(C)cc3=O)N2)cc1 (centres undefined)	1	1	1	i	-1	-8	-3	0
Cc1oncc1C(=O)Nc1cccc(C#N)c1	7	-3	-2	/	5	-10	-6	-5
O=C(NC1CCS(=O)(=O)C1)/C(=C/c1ccc(Cl)cc1)NC(=O)c1ccccc1 (centres undefined)	-5	3	6	i	0	-4	6	/
COc1ccc(CC(=O)NC(C)c2nnc(SCC(=O)Nc3cc(C)ccc3OC)n2C)cc1 (centres undefined)	-6	2	1	i	2	/	1	6
O=C1[C@@H]2C(c3ccccc3Cl)=NO[C@@H]2C(=O)N1Cc1ccccc1	3	4	4	i	-7	1	1	/
CC1CCCCN1Cc1nc2ccccc2c(=O)[nH]1 (centres undefined)	-6	7	-2	i	5	-18	-13	-42
COc1ccc(CCNS(=O)(=O)c2ccc3c(c2)CC(C)N3C(C)=O)cc1OC (centres undefined)	4	3	-7	i	4	17	12	14
CCCn1c(=S)[nH]c2cc(C(=O)N3CCN(C4CCCCC4)CC3)ccc2c1=O	0	-8	-5	i	8	-13	2	-4
COC(=O)CNc1nc(-c2ccncc2)nc2ccccc12	-4	12	-4	i	-2	-18	4	-335

By substructure, the compounds so far containing a thiophene ring, fused or not
SMILES	eIF4H inh	MT1-MMP act inh	MT1-MMP act inh RFP	Rce1 inh	CSC inhib	Yeast UUG start	PABP polyA inh	Env fusion inh
CN(CC(=O)NCc1ccc(F)cc1)S(=O)(=O)c1ccc(Br)s1	1	0	4	/	5	-16	2	7
Cc1cccc(C(=O)NC2CCN(CC(=O)NCc3cccs3)CC2)c1	-1	3	0	i	/	/	-15	-3
O=C(c1cc(-c2cccs2)on1)N1CCN(c2ccccc2)CC1	8	-9	-1	i	/	-20	7	/
Cc1cc(C(=O)Nc2sc3c(c2C#N)CCC(C(C)(C)C)C3)no1 (centres undefined)	1	-3	-5	i	-3	-22	4	-16

The list goes on:
SMILES	eIF4H inh	MT1-MMP act inh	MT1-MMP act inh RFP	Rce1 inh	CSC inhib	Yeast UUG start	PABP polyA inh	Env fusion inh
CC(C)N(c1ccccc1)c1ccc(NC(=O)CCl)cc1	8	-5	-11	i	-7	3	13	-4
C#Cc1ccc(NC(=O)C2(C)CCN2C(=O)CC(c2ccccc2)c2ccccc2)cc1 (centres undefined)	/	-7	-9	/	/	-6	/	-6
CN(C)c1ccc(CN2CCC(C(=O)NC(c3ccc(F)cc3)c3ccc4ccccc4n3)CC2)cc1 (centres undefined)	/	0	-3	/	/	0	/	-12
O=c1c2cc(Cl)ccc2nc(-c2ccccc2)n1O	-6	1	1	i	-5	/	4	8
Cc1ccc(NC(=O)C2CC2C)cc1S(=O)(=O)N1CCOCC1 (centres undefined)	/	-5	-2	i	-3	-19	/	-1
COc1ccc(NC(=O)N2c3ccccc3C(C)=CC2(C)C)cc1	1	-2	1	i	12	/	0	-5
CC(C)(C)NS(=O)(=O)c1cccc(S(=O)(=O)c2cccc(S(=O)(=O)NC(C)(C)C)c2)c1	5	/	/	/	10	/	8	/
O=C(Nn1cnnc1)C1CCCN1S(=O)(=O)c1ccc(F)cc1 (centres undefined)	4	3	3	i	-8	/	-6	/
CCOc1ccc(C(=O)OCC(=O)NCCCc2ccccc2)cc1	-7	5	6	i	-9	0	-5	-1
CCOc1ccc(N2C(=O)CSC2=NC#N)cc1	/	-12	1	/	-1	-28	/	-3
Cc1ccc(-n2ncc(-c3nnc(SCC(=O)NC4CCCC4)o3)c2N)cc1C	-12	-1	-11	i	-6	-9	1	/
COc1ccccc1N1CCN(C(=O)CCCNC(=O)Cn2cnc3sc(C)c(C)c3c2=O)CC1	-5	0	-3	i	-9	0	12	-1
CCOC(=O)/C(C)=N/NC(=O)c1ccc([N+](=O)[O-])cc1	-11	2	4	/	-7	/	1	-10
O=C(COc1ccc(-c2ccccc2)cc1)NNC(=O)NC1CCCCC1	-2	4	2	i	-13	/	14	5
Cc1ccc(OCCCSc2ncccn2)cc1C	-6	3	-4	i	-4	-8	8	-37
COc1cccc(CN2CC(C(=O)NCc3ncc(C)[nH]3)CCC2=O)c1 (centres undefined)	0	-1	0	i	-8	-20	2	-15
COc1cccc(OC)c1C(=O)Nc1ccc2c(c1)n(C)c(=O)n2C	-9	7	5	i	-4	-13	-13	-11
O=C(CN1CCN(c2ccc(F)cc2)CC1)Nc1cccnc1Cl	-10	-4	1	/	6	/	8	9
CC(C)[C@H](NC(=O)[C@@H]1CSC2c3ccccc3C(=O)N21)C(=O)NCc1ccncc1 (some centres undefined)	0	-1	1	i	-14	-10	1	-3
Cc1cc(C(=O)COC(=O)c2cnccn2)c(C)n1-c1ccc(Br)cc1	/	2	-2	/	-1	-4	/	-126
Cc1nn(CC(=O)NCc2ccccn2)c(C)c1[N+](=O)[O-]	7	1	3	i	14	-7	-7	4
O=C(C1CCCN(S(=O)(=O)c2ccc(Br)cc2)C1)N1CCN(Cc2ccccc2)CC1 (centres undefined)	1	-3	-18	i	16	-4	13	44
CCOc1ccc(NC2=C(Cl)C(=O)N(C3CCCCC3)C2=O)cc1	5	6	7	i	-7	-14	19	/
Cc1cc(OC2CCCCC2)nc(-c2ccccc2O)n1	-6	6	1	i	17	-1	-3	8
O=C(CCN1CCN(CC(=O)Nc2ccccc2F)CC1)Nc1ccccc1F	-1	5	2	i	21	3	8	/
CCCOc1ccc(Cc2c(Cl)nc(SC)nc2OC)cc1	-9	-3	-6	i	25	/	-3	15
CC/C(=N\NC(=O)c1c[nH]c2ccccc12)c1cccs1	1	/	/	i	12	/	11	-13
CC1CCc2nc3ccccc3c(C(=O)OCC(=O)N3CCc4ccccc43)c2C1 (centres undefined)	-7	5	-4	i	4	/	12	/
COc1c(Cl)cc(C(=O)Nc2ccc(Cl)cn2)cc1Cl	-4	2	0	i	4	-9	-4	/
Cc1c(C(=O)Oc2ccc(Cl)cc2)n(C)oc1=O	1	3	-3	i	3	/	-2	-3
O=C(CNc1cccc(S(=O)(=O)N2CCCCC2)c1)Nc1cccc(F)c1	/	-7	-8	i	-1	6	/	5
COc1ccccc1-n1ccnc(SCC(=O)NC2CCCCC2)c1=O	/	0	-1	i	14	4	/	2
Nc1nc2c(c3c1c(=O)oc1ccccc13)CCCCC2	4	-4	2	i	-7	-6	2	/
CCCS(=O)(=O)NC(=O)C1(C)CCCN(C(=O)c2sccc2C)C1 (centres undefined)	/	4	3	/	/	-14	/	2
C#CCNC(=O)C1=C[C@@H](c2ccccc2)C[C@@H](OCCCCO)O1	/	2	3	i	-3	1	/	-27
COC(=O)/C(=N/Nc1ccccc1C)Sc1nnc(C(O)c2ccccc2)n1-c1ccccc1 (centres undefined)	-4	2	0	/	-14	/	3	-37
CCn1c(Cc2ccccc2)nnc1SCC(=O)Nc1nccs1	4	-2	5	i	-8	-16	12	-25
O=C(Nc1cccnc1Cl)c1cc(-c2ccc(Cl)cc2)on1	-9	-4	0	i	0	-23	10	-9
Cc1nc(SCC(=O)N2CCCC2=O)c2c(C)c(C)sc2n1	/	2	5	/	/	-21	/	-14

This is a subset; rates above refer to the full screens.
